AID504770: growth inhibition of E. coli YBA685, primary screen, V. cholerae RctB inhibitors; E. coli YBA685 rctB-dependent plasmid, OD600 growth, 3 h; hits give low values; z-score (concentration not given with the values); 0.27% of 130,000 active; AID 504770, 2011;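 active = z-score under -2 on both plates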;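 also: wells of about 30 µL received 100 nL stock; score is relative to mean and SD of the test wells; the first replicate is given; strong numbers were not always called active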
Ba CapD inh: Bacillus anthracis CapD inhibitors, primary screen, biochemical, fluorescence intensity | CapD gamma-glutamyltranspeptidase (Bacillus anthracis Ames Ancestor) | purified CapD enzyme, fluorescence intensity read-out; hits give low values; some hits fall short of the stated cut | z-score (test concentration not listed) | 0.23% of 140,000 active;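 active = z-score under -4 in either of two replicates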;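 also: stock transfer was 100 nL into about 40 µL; score is relative to mean and spread of the plate; one replicate is shown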
* marks the source's active call; other numbers are inactive results; . = no result given; & = joins results of further samples. Some of the compounds tested (hit frequency here may not be typical).

SMILES | AID504770 | Ba CapD inh
S=c1[nH]nc2ccccn12 | -0.95&1.7 | 1.33
COc1cc(C)nc(N(C)S(=O)(=O)c2ccccc2Cl)n1 | -0.3 | -1.31
Cc1ccc2nc(CSc3nnc(-c4cccs4)n3CC3CCCO3)cc(=O)n2c1 (configuration not stated) | -0.45 | .
O=C(O)/C=C\C(=O)N1CCCN(c2ncc(C(F)(F)F)cc2Cl)CC1 | . | -0.35
COC(=O)/C=C/c1ccc(Br)cc1 | -0.4 | 0.005
CC(C)(C)c1ccc2[nH]c3c(cc(NC4CCCCC4)c4c(=O)c5ccccc5c(=O)c43)oc2c1 | . | 0.35
O=C(OCCc1ccc(F)cc1)N1CCc2c([nH]c3ccccc23)C1 | . | 0.86
O=C(NC(Nc1ccc(Cl)cc1)C(=O)c1ccccc1)c1ccccc1 (configuration not stated) | 1.05 | -0.045
O=C(CSc1nc2sc3c(c2c(=O)n1-c1ccccc1)CCCC3)NCCOCCO | . | 0.05
Cc1sc(/N=C/c2ccc(Br)s2)c(C(N)=O)c1C | 0.6 | -0.945
Cc1ccccc1C1C2=C(Nc3c1c(=O)n(C)c(=O)n3C)c1ccccc1C2=O (configuration not stated) | 0.1 | 0.28
COc1cc(NC(=O)CN2CCCCCC2=O)c(OC)cc1Cl | -0.55 | .
CN(Cc1nc2ccccc2c(=O)[nH]1)C(=O)c1nn(Cc2ccccc2)c(=O)c2ccccc12 | 1.1 | .
COc1cc(COc2ccc3c(C)c(CC(=O)O)c(=O)oc3c2C)cc(OC)c1OC | -0.65 | 59.6
O=[N+]([O-])c1ccc(Sc2ncn[nH]2)c([N+](=O)[O-])c1 | . | -1.25

Single values from the results shown:
`O=C(CSc1nc2sc3c(c2c(=O)n1-c1ccccc1)CCCC3)NCCOCCO` in Ba CapD inh is listed with 0.05
`O=C(OCCc1ccc(F)cc1)N1CCc2c([nH]c3ccccc23)C1` in Ba CapD inh is listed with 0.86
`COC(=O)/C=C/c1ccc(Br)cc1` in AID504770 is listed with -0.4
`Cc1sc(/N=C/c2ccc(Br)s2)c(C(N)=O)c1C` in Ba CapD inh is listed with -0.945

Additional results follow:
SMILES | AID504770 | Ba CapD inh
Cc1ccc(C)c(N2CCN(S(=O)(=O)c3ccc4[nH]c(=O)ccc4c3)CC2)c1 | 0.75 | 6.76
Cc1ccc(CC(=O)[C@@H]2[C@@H](c3ccoc3)C(C#N)(C#N)[C@H]3C=Cc4ccccc4N23)cc1 | 1.85 | 0.55
COC(=O)c1ccc(COC(=O)c2ccc3c(c2)S(=O)(=O)N=C2CCCCCN23)o1 | 1.35 | .
CCC(C)NC(=O)c1cc(-c2ccc(O)cc2)on1 (configuration not stated) | 0.1 | -0.75
N#Cc1c(N2CCOCC2)nsc1-c1ccc(C(F)(F)F)cc1 | -0.1 | -0.19
C[C@H]1[C@H](C)CC[C@]2(C(=O)O)CC[C@]3(C)C(=CCC4[C@@]5(C)CC[C@H](O)C(C)(C)[C@@H]5CC[C@]43C)[C@H]12 (some centres not stated) | . | 1.08
CN(C)C(=O)n1c(SCc2ccccc2)nnc1-c1ccc(C(C)(C)C)cc1 | 0.4 | 10.3
Cc1cc(C(=O)CO/N=C/c2ccco2)c(C)n1C | -0.55 | .
O=C(OCC(=O)N1CCCCC1)c1cccs1 | 0.85 | -0.395
CC1CCc2nc3ccc4ccccc4c3c(-c3ccc(O)c(O)c3)c2C1 (configuration not stated) | -0.35 | 2.43
O=C1CN(C(=O)CSc2ncnc3ccccc23)c2ccccc2N1 | 0.35 | .
CCNc1nc(Oc2ccc(C(=O)OC)cc2)nc(SC)n1 | -1.2 | -0.69
O=C1N(CN2CCc3ccccc3C2)c2ccccc2C12OCC(CCl)O2 (configuration not stated) | . | 0.59
CCOc1ccc(N=Cc2ccc(N(CC)CC)cc2O)cc1 | 0.3 | 0.07
O=C(c1cccc2c1-c1ccccc1C2)N1CCCCC1 | -0.65 | 0.405
O=S(=O)(c1cc(Br)ccc1Br)N1CCN(c2ncnc3sccc23)CC1 | . | 0.575
O=C(CN1CCOCC1)N1N=C(c2c(-c3ccccc3)c3cc(Br)ccc3[nH]c2=O)CC1c1ccccc1 (configuration not stated) | . | -0.355
Cc1noc(C)c1-c1nc(CSc2ccccc2N)no1 | -0.55 | -0.415
COc1cc2ccccc2cc1C(=O)Nc1ccccc1-c1nc2ccccc2[nH]1 | . | 1.64
Cc1nc2sccn2c(=O)c1S(=O)(=O)NCCc1ccccc1 | -0.9 | 51.6
COC(=O)C[C@H](N)C(=O)N[C@H](Cc1ccccc1)C(=O)OC | . | 0.145
Cc1ccc2c(c1)C1CN(C)CCC1N2C(=O)Cc1cccs1 (configuration not stated) | -0.5 | -0.565
Cc1ccc(C)c(N2CCN(CCCNC(=O)c3nc(-c4cccnc4)no3)CC2)c1 | -0.5 | 0.15
CN/C(=C\[N+](=O)[O-])NCCSCc1ccc(CN(C)C)o1 | -0.15 | 0.165&-0.265
O=C(COc1ccc(Br)cc1)N1CCOCC1 | 1.5 | .
Cc1cc(C(=O)Nc2ccc(CC(=O)O)cc2)cs1 | -1.15 | -0.055
COC1(OC)c2nonc2C(OC)(OC)c2nonc21 | -0.4 | .
CN1CCN(CCCNS(=O)(=O)c2ccc3c(c2)CN(C(=O)C(F)(F)F)CC3)CC1 | . | -0.25
Cc1c(C(=O)NN2CCN(C)CC2)oc2ccccc12 | -0.7 | 0.065
Cc1cc(=O)oc2c1c(C)nn2C | -0.35 | -0.26

Some of these compounds in order of count of non-hydrogen atoms, lowest first:
SMILES | AID504770 | Ba CapD inh
Cc1c(C(=O)NN2CCN(C)CC2)oc2ccccc12 | -0.7 | 0.065
Cc1noc(C)c1-c1nc(CSc2ccccc2N)no1 | -0.55 | -0.415
COC(=O)C[C@H](N)C(=O)N[C@H](Cc1ccccc1)C(=O)OC | . | 0.145

Of the compounds above, 4 contain fluorine:
SMILES | AID504770 | Ba CapD inh
O=C(O)/C=C\C(=O)N1CCCN(c2ncc(C(F)(F)F)cc2Cl)CC1 | . | -0.35
O=C(OCCc1ccc(F)cc1)N1CCc2c([nH]c3ccccc23)C1 | . | 0.86
N#Cc1c(N2CCOCC2)nsc1-c1ccc(C(F)(F)F)cc1 | -0.1 | -0.19
CN1CCN(CCCNS(=O)(=O)c2ccc3c(c2)CN(C(=O)C(F)(F)F)CC3)CC1 | . | -0.25

Further entries
SMILES | AID504770 | Ba CapD inh
CCOc1ccc(N(CC)C(=O)NC2CC(=O)N(c3ccc(OC)cc3)C2)cc1 (configuration not stated) | -0.4 | .
O=c1c(-c2cc(F)ccc2F)c(O)nc2n1CCCC2 | 0.7 | 0.105
C#CCn1c(SCc2ccc(F)cc2)nc(-c2ccccc2)c1-c1ccccc1 | . | 0.24
COc1ccc(S(=O)(=O)N(Cc2cccc(Oc3ccc(Cl)cc3)c2)Cc2ccco2)cc1 | . | -0.55
O=S(=O)(/N=C/c1ccco1)c1cccs1 | 1.4 | .
Cc1ccn2c(NC(=O)C(C)(C)C)c(-c3ccc(F)cc3)nc2c1 | 1.2 | 1.25
CC#CCNC1CCCCC1 | 1.05 | .
CN(C)C(=O)N1CCN(S(=O)(=O)c2ccccc2)C1 | -0.05 | .
CC1CC(NC(=O)/C(C#N)=C/c2ccc[nH]2)CC(C)(C)C1 (configuration not stated) | 0.2 | 0.17
CCn1c(=O)c(=O)n(CC)c2cc(S(=O)(=O)NCc3cccs3)ccc21 | 2.25 | -1.31
O=C(NCC(c1ccco1)N1CCCCC1)C1(c2ccccc2)CC1 (configuration not stated) | 0.4 | .
COCCn1c(C)cc(-c2csc(NCc3ccc(C)cc3)n2)c1C | 0.55 | .
Cc1nc(SCSc2nc3ccccc3s2)nc2c1CCCC2 | 1.4 | 0.235
COc1ccc(CC(C)CC(=O)Nc2ccc(I)cc2)cc1 (configuration not stated) | 1.7 | -0.295
c1ccc(Cn2c(NCc3ccncc3)nc3ccccc32)cc1 | 0.3 | -0.815
Cc1ccc(S(=O)(=O)N2Cc3ccccc3CC2C(=O)NC2CCCCC2)cc1 (configuration not stated) | 0.75 | -0.06
O=C(Nc1ccc(OCC(F)(F)C(F)F)c(C(F)(F)F)c1)c1ccccc1O | 1.05 | 3.3
COc1cc(C(=O)N=c2c(C#N)cc3c(=O)n4cccc(C)c4nc3n2C(C)C)cc(OC)c1OC | -0.25 | .
O=C1CC(C(F)(F)F)=Nc2ccccc2N1 | . | 0.04
Cc1ccc(N=C2NC(=O)C(Cc3cccc(Cl)c3)S2)cc1 (configuration not stated) | . | -0.04
Cc1cc(C(=O)CSc2nc3ccccc3o2)c(C)n1CC1CCCO1 (configuration not stated) | -0.05 | .
O=C(Nc1ccc(C(=O)N2CCCCC2)cc1)C1=CSCCO1 | 0.15 | -0.25
COC(=O)C1C(OC(=O)c2ccccc2)CC2CCC1N2C (configuration not stated) | . | -0.155
O=C(CSCc1nnc(-c2ccc(F)cc2)o1)Nc1ccccc1F | 1.85 | .
S=C(NCC1CCCO1)N1CCn2c(nc3ccccc32)C1 (configuration not stated) | -0.8 | -0.43
Oc1ccc(Cl)cc1 | 0.15 | -0.605
CCOC(=O)c1cc(-c2ccnn2S(=O)(=O)c2cccc(C(F)(F)F)c2)on1 | -0.15 | 10.2
O=C(COC(=O)C1CCCO1)Nc1cc(Cl)cc(Cl)c1 (configuration not stated) | -0.25 | 3.79
NS(=O)(=O)c1ccc(CCNC(=O)CN2CCNC(=O)C2)cc1 | 0.45 | .
Cc1cccc(NC(=S)NCc2ccncc2)c1 | . | 0.595

Of the compounds above, two have a nitro group on carbon:
SMILES | AID504770 | Ba CapD inh
O=[N+]([O-])c1ccc(Sc2ncn[nH]2)c([N+](=O)[O-])c1 | . | -1.25
CN/C(=C\[N+](=O)[O-])NCCSCc1ccc(CN(C)C)o1 | -0.15 | 0.165&-0.265

(next part)
SMILES | AID504770 | Ba CapD inh
Cc1cc(C)c2c(n1)sc1c(=O)n(-c3cccc4cccnc34)nnc12 | 0.9 | -0.62
CCC(C)Nc1nc(Cl)nc(N(C#N)CN2C(=O)c3ccccc3S2(=O)=O)n1 (configuration not stated) | 0.1 | 0.435
CCc1ccc(NC(=O)C(C)N2CCN(S(=O)(=O)c3ccc(C)cc3C)CC2)cc1 (configuration not stated) | 0 | .
CCOc1ccccc1NC(=O)c1cc([N+](=O)[O-])ccc1N1CCCCCC1 | . | 3.33
N#CCc1nc2cc(C(F)(F)F)ccc2s1 | -0.05 | 1.36
OC1(C(F)(F)F)CC(c2ccccc2)=NN1c1cccc2cccnc12 (configuration not stated) | . | 0.04
S=C(Nc1cccc(Cl)c1)Nc1cc(-c2ccc(Cl)cc2)[nH]n1 | 1 | -2.45
COc1ccc(C(=O)NNC(=O)OCCn2cccc2)cc1 | . | -0.29
CCn1c(C)c(C2=CCN(S(=O)(=O)c3cccc4nsnc34)CC2)c2ccccc21 | 0.6 | -0.86
O=C(CN1CCOCC1)N1c2ccccc2CCc2ccccc21 | . | 0.22
Cc1ccc(OCc2nnc(SCC(=O)NC3CCCCC3C)o2)cc1 (configuration not stated) | 0.05 | 0.39
Cc1cccc(CCOC(=O)NCCOc2ccccc2)c1 | . | 0.375
CCOC(=O)c1c(C)[nH]c(C(=O)C(C)Sc2nncn2C(C)C)c1C (configuration not stated) | 0.85 | .
COc1ccc(-c2nc3scc(CCNC(=O)Cc4ccccc4)n3n2)cc1 | 1.4 | .
O=C(N/N=C/c1ccco1)C12CC3CC(CC(C3)C1)C2 | 1.1 | .
COc1ccc(-n2cc(C(=O)NCC3Cc4ccccc4O3)nn2)cc1 (configuration not stated) | 0.55 | 0.31
N#Cc1ccccc1CSc1nnc2c(Cl)cc(Cl)cn12 | -0.6 | .
Cc1cccn2cc(CNC(=O)CC(C)(C)C)nc12 | -0.2 | .
OC1C2CCCC1C(N1CCCCC1)CC2 (configuration not stated) | 0.3 | -0.41
Cc1ccc(SCC(=O)c2cccc([N+](=O)[O-])c2)cc1 | . | -0.435
Cc1ccc(/C=C/C(=O)N2CCN(c3cccc(C)c3C)CC2)cc1 | 2.2 | -0.03
Cc1nnsc1C(=O)Nc1ccccc1C(F)(F)F | 0.95 | .
O=C(NC(=O)N1CCOCC1)c1cc(Br)cc(Br)c1 | -0.8 | 0.745
CN(C)S(=O)(=O)c1ccc(C(=O)OCc2nc(-c3ccccc3)no2)cc1 | 0.05 | .
COc1ccc(/C=C/C(=O)N(C)c2ccccc2)cc1OC | -0.5 | -1.82
Cc1nn(C)c2sc(C(=O)NN)cc12 | -0.45 | 0.42
CC(C)C(=O)Nc1cccc(NC(=S)NC(=O)/C=C/c2ccco2)c1 | 0.7 | -3.59

Screening results (PubChem BioAssay)
